# VACV mCherry inh = vaccinia inhibition (mCherry reporter). Vaccinia virus mCherry reporter infection, fluorescence; about a quarter of the inactives have no number. Potency, µM (top dose mostly 36.5 µM), for inactives: top-dose activity change, negative = inhibition, most hits filed as inhibitors. actives 0.63% (n = 310,000). AID 720579; active = well fitted inhibition curve with a large enough effect; inconclusive = small, poorly fitted or top-dose-only effect; inactive = no such curve, though single readings can be large or run the other way; tested in A549 cells; note: nearly all actives have a fitted effect of over 35% in size; inactives centre near -10
# Vaccinia Venus = vaccinia inhibition (Venus reporter) | Vaccinia virus Venus reporter expression, fluorescence | Potency, µM (doses to about 36.5 µM), for inactives: top-dose activity change, negative = inhibition, most hits filed as inhibitors | actives 0.46% (n = 330,000) | AID 720580; active means well fitted inhibition curve with a large enough effect; inconclusive means small, poorly fitted or top-dose-only effect; inactive means no such curve, though single readings can be large or run the other way; tested in A549 cells; note: nearly all actives have a fitted effect of over 30% in size; inactives centre near -10
# Active calls of the source: *; i = inactive; ? = inconclusive; / = no result given; [ ] = another dose, or the depositor's remark. % is set by controls: 0 for no effect and ±100 for the full control effect; potency is the fitted concentration of half-maximal effect.
SMILES,VACV mCherry inh,Vaccinia Venus
O=C(COc1ccc(Cl)cc1)Nc1nnc(S(=O)(=O)N2CCc3ccccc32)s1,-7.2%,-11.7%
N#CCCN(CCN1CCCC1)S(=O)(=O)c1ccc(-c2ccc([N+](=O)[O-])cc2)cc1,-11.6%,-7.8%
O=C(/C=C/c1ccco1)Nc1ccc(C(=O)N2CCOCC2)cc1,-16.2%,-6.1%
Cc1ccc(C2(C)NC(=O)N(CC(=O)Nc3ccccc3C(=O)NC3CCCC3)C2=O)cc1 (configuration not stated),-13.1%,-10.2%
Cc1ccc(-c2nnc(Nc3ccc(Br)cc3)c3ccccc23)cc1S(=O)(=O)N1CCOCC1,-16.3%,-16.3%
O=C(COCc1cc(-c2ccc(F)cc2)on1)Nc1cccc(Cl)c1Cl,-22.2%,-12.6%
Cc1ccc(-c2noc(-c3ccccc3NC(=O)C3CC(=O)N(c4ccc(C)cc4)C3)n2)cc1 (configuration not stated),-26.2%,-27.5%
CCc1ccc(NC(=S)NC2CC3CCCC(C2)N3Cc2cccs2)cc1 (configuration not stated),?,-23.6%
Cc1ccc(OCc2cc(C(=O)NCC(C)(C)N3CCOCC3)no2)cc1C,-19.9%,?
O=C(NCc1ccncc1)C1Cc2c(-c3ccc(Cl)cc3)ccnc2O1 (configuration not stated),-11.4%,-19.5%
O=C1c2ccccc2C(=O)N1C1CCCCC1,-6.9%,-6.3%
O=c1c2ccccc2oc2cc(-c3ccc4[nH]ccc4c3)ccc12,?,-28.6%

# Molecules from the list above with four or more nitrogen atoms:
SMILES,VACV mCherry inh,Vaccinia Venus
O=C(COc1ccc(Cl)cc1)Nc1nnc(S(=O)(=O)N2CCc3ccccc32)s1,-7.2%,-11.7%
N#CCCN(CCN1CCCC1)S(=O)(=O)c1ccc(-c2ccc([N+](=O)[O-])cc2)cc1,-11.6%,-7.8%
Cc1ccc(C2(C)NC(=O)N(CC(=O)Nc3ccccc3C(=O)NC3CCCC3)C2=O)cc1 (configuration not stated),-13.1%,-10.2%
Cc1ccc(-c2nnc(Nc3ccc(Br)cc3)c3ccccc23)cc1S(=O)(=O)N1CCOCC1,-16.3%,-16.3%
Cc1ccc(-c2noc(-c3ccccc3NC(=O)C3CC(=O)N(c4ccc(C)cc4)C3)n2)cc1 (configuration not stated),-26.2%,-27.5%

# The results go on.
SMILES,VACV mCherry inh,Vaccinia Venus
c1ccc(-c2nn3c(-c4ccccc4)nnc3o2)cc1,-19.7%,-19.5%
COc1ccc(/C=C/C(=O)NCC(=O)N/N=C/c2cccnc2)cc1,-12.9%,-8.8%
NC(=O)C1(NC(=O)[C@@H]2CC3(CC(c4cccc(NC(=O)[C@@H]5CCC(=O)N5)c4)=NO3)CN2C(=O)Cc2ccc(C(F)(F)F)cc2)CC1 (some centres not stated),i,2.6%
COc1ccc(/C=C(/NC(=O)c2ccccc2)C(=O)N2CCCC2)cc1,-26.2%,-15.0%
COc1ccc(Nc2nc3ccccc3s2)cc1,-22.4%,0.8%
CCCCN(C(=O)COc1ccc(F)cc1)c1c(N)n(CC(C)C)c(=O)[nH]c1=O,-13.2%,-14.2%
O=C(CNC(=O)c1cccs1)NCCN1CCN(c2ccccc2F)CC1,i,-9.4%
CC(=O)c1ccc(N2CCN(C(=O)C(=O)c3c(C)[nH]c4ccccc34)CC2)cc1,i,-20.9%
O=C1CC(c2ccc(O)c(O)c2)Oc2c1ccc(O)c2O (configuration not stated),-1.0%,3.8%
O=C(O)/C=C/C(=O)NNC(=O)c1cccc(Br)c1,-10.1%,-3.8%
CN(Cc1ccccc1)C(=O)c1ccc2c(c1)OCCO2,/,-2.2%
COc1ccc(C(OC(=O)c2cccs2)C(=O)NCC2CCCO2)cc1 (configuration not stated),-8.8%,-2.8%
Cc1ccc2nc(SCC(=O)Nc3cccc(F)c3)nc(=O)n2c1,-22.9%,-9.7%
CC(C)CC(C(=O)O)N(Cc1ccccc1)Cc1ccccc1 (configuration not stated),/,-17.1%
Cn1c(SCCN2CCCC2)nnc1C1CCN(S(=O)(=O)c2ccc(F)cc2)CC1,7.3%,5.8%
C/C(N)=C(/C#N)C(=O)COC(=O)Cc1coc2cc(C)ccc12,6.9%,-6.3%
C=C(C)CN=c1scc(C)n1/N=C/c1ccco1,10.2%,14.7%
Cc1ccc(C(=O)Nc2cccc(C(=O)NC3CCCCC3)c2)cc1,-20.4%,-13.0%
O=C(CN(C(=O)CNS(=O)(=O)c1ccccc1)C1CCCC1)NCc1ccco1,i,-12.7%
C=CCCCCCCCCC(=O)NNC1=CC(=O)CC(C)(C)C1,/,-13.8%
O=C(CCn1c(=O)c2sccc2n(Cc2ccccc2F)c1=O)NCc1ccc2c(c1)OCO2,-21.1%,-18.9%
CCn1c(SCC(=O)Nc2ccc(OC)cc2)nc2c1c(=O)n(C)c(=O)n2C,-2.6%,-15.8%
CCCC(c1nnnn1Cc1ccco1)N1CCN(C(=O)c2ccco2)CC1 (configuration not stated),-12.5%,-4.8%
Cc1cc2cc(CN(Cc3cccs3)S(=O)(=O)c3ccc4c(c3)OCCO4)c(=O)[nH]c2cc1C,-9.8%,3.3%
Cc1ccc(C)c(NC(=O)C(C)n2c(=O)cc(C(F)(F)F)c3c(C)nn(C)c32)c1 (configuration not stated),-0.3%,2.2%
Cn1nnc(NC(=S)NC(=O)Cc2ccccc2)n1,-1.1%,1.6%
O=S(=O)(c1ccccc1)N1CCN(c2cccc(Cl)c2)CC1,-8.9%,-9.9%
Cc1ccccc1NC(=O)CSc1nnnn1C,/,-3.0%
COc1ccc(CNC(=O)CC23CC4CC(CC(C4)C2)C3)cc1,-0.2%,-1.0%
Cc1ccc(Nc2nnc(SCC(=O)NC(Cc3c[nH]c4ccccc34)C(=O)O)s2)cc1 (configuration not stated),-27.4%,-9.1%
Cn1c(SCc2cccc(F)c2)nnc1-c1cnccn1,i,-8.3%
CCC(C)Nc1nc2c(c(=O)[nH]c(=O)n2C)n1CCCc1ccccc1 (configuration not stated),-1.4%,-7.8%
C=C(C)c1cccc(C(C)(C)NC(=O)NCCCN2CCCC2=O)c1,-4.2%,-3.5%
CCN1CCN(Cc2ccc(NC(=O)c3ccc(C)c(NC(=O)c4cncc(-c5cccs5)c4)c3)cc2C(F)(F)F)CC1,?,15.8µM*
CN(NC(=O)c1cccc(Cl)c1)c1nc(-c2ccccc2)nnc1C(F)(F)F,/,-16.7%
COc1ccccc1-c1noc(-c2ccccc2C(=O)Nc2ccccc2)n1,/,-13.1%
C=CCNC(=O)N1c2ccccc2Sc2ccccc21,-10.4%,-28.9%
COc1ccc(/C=N/N2C(=O)c3ccccc3C2=O)cc1,-8.5%,1.2%
c1ccc(C(Cc2nc(-c3ccccn3)no2)c2ccccc2)cc1,/,-12.7%
COc1ccc(OS(=O)(=O)c2c(C)noc2C)cc1,i,-3.8%
O=C(CCN1C(=O)C2CC=C(Cl)CC2C1=O)NCc1ccco1 (configuration not stated),-0.3%,13.1%
Clc1ccc(CSc2ncccn2)cc1,-17.5%,-10.6%
COc1cc(NC(=O)CCc2c(C)noc2C)c(C(=O)O)cc1OC,-5.7%,-5.7%
Cc1[nH]n(-c2ccccc2)c(=O)c1C(c1cc(Cl)ccc1O)c1c(C)[nH]n(-c2ccccc2)c1=O,i,-10.7%
Cc1nc(Sc2nnnn2-c2ccccc2)c(C#N)c(C)c1C,-4.6%,-2.1%
S=C(Nc1ccc(Cl)c(Cl)c1)N1CCOCC1,-5.2%,-14.8%
O=C(CCN1CCCCC1)N1CCc2c([nH]c3ccccc23)C1c1cccnc1 (configuration not stated),-5.0%,-7.0%
Cc1ccc(S(=O)(=O)Nc2cccc(Oc3cnccn3)c2)cc1,-25.4%,-17.4%

# Two entries from above, with two lines to a compound:
# Under each structure – VACV mCherry inh, Vaccinia Venus
- COc1ccc(/C=N/N2C(=O)c3ccccc3C2=O)cc1
  -8.5%, 1.2%
- c1ccc(C(Cc2nc(-c3ccccn3)no2)c2ccccc2)cc1
  /, -12.7%

# Remaining list, next part.
SMILES,VACV mCherry inh,Vaccinia Venus
Cc1ccc(C)c(S(=O)(=O)Nc2ccccc2C(=O)Nc2cc(C)on2)c1,-23.8%,-25.8%
COc1ccccc1CCNC(=O)CSCC(=O)Nc1ccccc1F,-1.1%,-18.9%
Cn1c(SCC(N)=O)nnc1-c1ccccc1,i,-4.4%
COCCCNC(=O)C[C@H]1C[C@H](C(=O)N2CCOCC2)[C@@]2(CCC3CCCC3)c3[nH]c4cc(-c5ccco5)ccc4c3CCN2C1=O,-11.4%,?
O=[N+]([O-])c1ccccc1/C=N/NC1=NCCCCC1,i,1.0%
O=C(Nc1cccc(C(F)(F)F)c1)c1ccc(-c2ccc(F)c(F)c2)c2ccoc12,?,?
CCN1CCN(C(=O)c2c(-c3ccccc3)noc2C)CC1,-14.3%,-13.6%
O=S(=O)(CC12C3C4C5C1C2C(Br)(C43)C51OCCO1)c1ccccc1 (configuration not stated),i,-11.3%
CCc1ccccc1N(C)C(=O)Cc1c(C(=O)O)c(C)cn1C,-11.7%,-6.2%
O=c1nc2sc3ccccc3n2c(=O)n1-c1ccc(Cl)c(Cl)c1,-9.4%,0.3%
COC(=O)CC1C(=O)NCCN1C(=O)CSc1nnnn1-c1ccc(OC)cc1 (configuration not stated),-21.1%,-5.1%
CCCOc1ccc(CNC(=O)c2ccc3c(c2)N(Cc2ccccc2)CCS3)cc1,-25.6%,-16.1%

# Overlap with the part before: 2 compounds, then new ones.
SMILES,VACV mCherry inh,Vaccinia Venus
COC(=O)CC1C(=O)NCCN1C(=O)CSc1nnnn1-c1ccc(OC)cc1 (configuration not stated),-21.1%,-5.1%
CCCOc1ccc(CNC(=O)c2ccc3c(c2)N(Cc2ccccc2)CCS3)cc1,-25.6%,-16.1%
O=C(NCC(c1cccs1)N1CCOCC1)c1ccccc1NS(=O)(=O)c1ccc(Cl)c([N+](=O)[O-])c1 (configuration not stated),-15.7%,-24.3%
Nc1[nH]c(C(=O)c2ccccc2)c(-c2cccc3ccccc23)c1C(=O)NCc1ccccc1,-10.2%,-5.7%
COc1cccc(-n2cc(C(=O)Oc3ccc(F)cc3)c3ccccc3c2=O)c1,-9.4%,-15.2%
CN(C)Cc1c[nH]c2ccc([N+](=O)[O-])cc12,?,0.0%
C=C1CC(C(=O)N/N=C/c2ccc(O)cc2)C1,-15.0%,-3.1%
C=CCC1(CC=C)CCCN1C(=O)CC1C(=O)NCCN1Cc1cccc(OC)c1OC (configuration not stated),0.8%,0.2%
Cc1ccc(Nc2ccc(C(N)=O)cc2[N+](=O)[O-])cc1C,?,-18.6%
COc1cccc(-n2c(=O)c3sc4ccccc4c3n(Cc3c(F)cccc3Cl)c2=O)c1,-3.1%,-9.4%
O=C(C[C@H]1C[C@@H]2c3cc(NS(=O)(=O)c4ccccc4)ccc3O[C@@H]2[C@H](CO)O1)NC1CCCC1,-2.6%,-19.0%
CC(OC(=O)c1cc(=O)[nH]c2ccccc12)C(=O)NC1CCCCC1C (configuration not stated),i,-12.9%
Cc1ccc(-c2nc(CSCC(=O)N3CCN(C(=O)c4ccco4)CC3)c(C)o2)cc1,-21.1%,-16.4%
Cc1ccc(NC(=O)Cn2cccc2)c(C)c1,i,-12.6%
O=C(NCc1cccnc1)C(=O)Nc1nc(-c2ccccc2)cs1,-9.5%[7.34 µM],8.7%[7.34 µM]
CCOc1cc(N2CCOCC2)c(OCC)cc1NC(=O)CN1C(=O)NC2(CCCCCCC2)C1=O,i,-9.0%
CCOc1cccc(OCCOc2ccc(C(=O)c3ccccc3)cc2)c1,i,-5.2%
Cc1cc(C)c2cc(C#N)c(SCC(=O)Nc3ccc4c(c3)OCO4)nc2c1,i,0.4%
CCN(CC(=O)Nc1ccc(OC)cc1)CC(=O)Nc1cccc(S(=O)(=O)N2CCOCC2)c1,-2.5%,-23.5%
Cc1nc(Nc2ccc(Cl)c(Cl)c2)sc1C(/C=C/c1ccc2c(c1)OCO2)=NNc1ccc([N+](=O)[O-])cc1[N+](=O)[O-],-0.5%,-11.3%
O=C(Nc1ccc(Br)cc1)c1ccco1,-6.0%,-27.6%
C/C(=N\S(=O)(=O)c1ccc(C)cc1)N(C)C,i,-2.0%
NS(=O)(=O)c1ccc(S(=O)(=O)c2ccccc2)nc1,?,?
Cc1ccc(C2=NN(CC(=O)NCCN(C)C)C(=O)CC2)cc1,-19.5%,-6.2%
CCCOc1ccc(CC(CC(=O)O)(C(=O)O)C(=O)O)cc1,-12.4%[1.46 µM],-5.6%
CCOC(=O)N1CCC2(CC1)OC(=O)C(C)=C2C(=O)NCc1ccccc1OC,-14.2%,-8.3%
COC(=O)C1=NNC2(c3ccc(C)cc3)C(=O)N(c3ccc(C)cc3)C(=O)C12 (configuration not stated),-1.0%,-2.1%
Cc1c(C)n(CCc2c[nH]c3ccccc23)ccc1=O,-2.8%,2.6%
Cc1ccc(C(=O)N2CCC(N3CCN(Cc4ccc(F)cc4)C(=O)C3=O)CC2)cc1,-14.9%,-6.5%
Cc1[nH]c2ccccc2c1N=Nc1c(C)n(C)n(-c2ccccc2)c1=O,-19.5%,-1.4%
CCn1c(C(O)c2ccccc2)nc2ccccc21 (configuration not stated),-2.6%,-7.1%
CC(C)(C)n1nc2c(c1NC(=O)COc1ccc(Cl)cc1)CS(=O)(=O)C2,i,-12.0%
CCc1cccc(NS(=O)(=O)c2c(C)n[nH]c2C)c1,-15.4%,-14.8%
Cc1oc2ccc(O)c(CN3CCOCC3)c2c1C(=O)Nc1cccc(Cl)c1C,-15.3%,-10.6%
CCCC(=O)Nc1ccc(Br)cn1,i,-20.2%
COc1ccc(NC(=O)c2sc3nc4c(cc3c2N)CCCCCC4)cc1Cl,-27.9%,-20.0%

# Bioassay records deposited in PubChem BioAssay by National Center for Advancing Translational Sciences (NCATS).
